Assay outcomes: PubChem BioAssay, National Center for Advancing Translational Sciences (NCATS)
SmPrx2 inh = Schistosoma Mansoni Peroxiredoxins (Prx2) | S. mansoni Prx2 activity coupled to TGR/GSH (TGR is thioredoxin glutathione reductase), NADPH fluorescence loss, qHTS; some inactives read as strong as hits | Potency, µM | 0.07% of 65,000 active | AID 448, 2006; active means full or partial inhibition curve with a strong effect at the top dose; inconclusive means weaker partial or single-point curve; inactive means no accepted curve; also: series up to 57 µM; many of its hits are not listed in these tables
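Coupled assay in which S. mansoni TGR passes NADPH reducing equivalents via glutathione to Prx2, which reduces H2O2. Compounds were preincubated 15 min at room temperature with 25 nM TGR/50 nM Prx2 mix. Kinetic NADPH fluorescence loss (ex 365/em 450 nm) was monitored.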
LT uptake inh = qHTS Assay for Anthrax Lethal Toxin Internalization. 0.67% of 70,000 active. Cells, anthrax lethal toxin internalization, FRET ratio (460/530). Potency, µM (doses to about 40 µM), inactives show top-dose activity change, negative = inhibition, most hits filed as inhibitors; active = well fitted falling ratio curve with the 530 nm signal flat; inconclusive = other ratio curves, or a change in one channel alone; inactive = flat curves in the ratio and both channels; the % refers to the ratio; also: % is scaled to controls: 0 for no effect and ±100 for the full control effect; nearly all actives have a fitted effect of over 50% in size; tested in ME-180 cells; beta-lactamase reporter
The depositor's hits bear a star; ? = inconclusive; . = not tested or not shown; & = joins results of further samples; [ ] = another dose, or the depositor's remark. Potency is read from the fitted curve at half-maximal effect. These rows are one share of the data. The share of hits here may be higher or lower than overall.

SMILES | SmPrx2 inh | LT uptake inh
Cc1nnc(N2CCN(c3ccccc3)CC2)[nH]c1=O | >57 | 4%
O=C(Nc1ccc2c(c1)OCCO2)C1CCCN(S(=O)(=O)c2cnc[nH]2)C1 (centres undefined) | >57 | 23%
Cc1cc(-c2nc3c4c5c(sc4[nH]c(=O)n3n2)CCC5)c(C)o1 | >57 | -20%
O=c1[nH]c2ccccc2nc1NCCN1CCOCC1 | >57 | -4%
C=CCn1c(SCC(=O)N2CC(=O)Nc3ccccc32)nc2scc(-c3cccs3)c2c1=O | >57 | -18%
CCCN1CCC[C@H](c2cccc(C#N)c2)C1 | >57 | -6%
O=C(Nc1ccc(C2CCCCC2)cc1)C1CCN(c2ncccn2)CC1 | >57 | -1%
Cc1nc2c(sc3nc4c(cc32)COC(C)(C)C4)c(=O)n1CC(=O)NCc1ccco1 | >57 | -2%
COc1ccc(C(=O)N2CCN(C3CCCCC3)CC2)c(OC)c1 | >57 | -4%
COc1cc(/C=N/n2cnnc2)ccc1OCCOc1ccccc1 | . | ?

Some values from above.
Reading for C=CCn1c(SCC(=O)N2CC(=O)Nc3ccccc32)nc2scc(-c3cccs3)c2c1=O under SmPrx2 inh: >57
Reading for O=C(Nc1ccc(C2CCCCC2)cc1)C1CCN(c2ncccn2)CC1 under LT uptake inh: -1%

Next part
SMILES | SmPrx2 inh | LT uptake inh
Cn1c(=NC(=O)CSCC(=O)N2CCCCC2)sc2ccccc21 | >57 | 7%
Cc1ccccc1-c1nc(CS(=O)CC(=O)NCc2ccccc2)c(C)o1 (centres undefined) | >57 | -5%
Cn1nc(C(=O)NC2CCCCCC2)ccc1=O | >57 | -13%
Cc1ccc2nc(NC(=O)C3CCN(S(=O)(=O)c4cccs4)CC3)sc2c1 | >57 | -27%
CCN(CC)C(C(=O)Nc1ccc2c(c1)OCO2)c1ccccc1 (centres undefined) | >57 | ?
CC(C)[C@@H](CC(=O)N[C@@H]1CCNC[C@H]1C(=O)N[C@H](CC(=O)N[C@@H](CCC(=O)O)CC(=O)O)Cc1c[nH]c2ccccc12)NC(=O)C[C@H](CO)NC(=O)[C@@H]1CNCC[C@H]1N | >57 | 4%
Cc1oc(-c2ccc(Cl)cc2)cc1-c1nn2c(-c3ccoc3C)nnc2s1 | >57 | ?
CC(=O)N1CC=CC1(C)C(=O)NCc1cc(F)cc(C(F)(F)F)c1 (centres undefined) | . | -7%
CCCn1cc(NC(=O)C2CC(c3cccc(Br)c3)=NO2)cn1 (centres undefined) | >57 | -3%
CCCC(=O)NC1=C(C#N)C2(CCCC2)Cc2ccccc21 | >57 | -1%
O=C(CSc1nnnn1Cc1ccccc1)Nc1ccc2c(c1)OCO2 | >57 | ?
Cn1c(-c2ccc(CN3CCCCC3)o2)nc2ccccc21 | >57 | 0%
CS(=O)(=O)N1CCN(c2ccccc2NC(=O)c2cccnc2)CC1 | >57 | 4%
COc1ccc2oc(=O)c(C(=O)O)cc2c1 | >57 | -1%
Cc1n[nH]c(=O)nc1NCc1ccc(Cl)cc1 | >57 | -17%
Cc1c(C(=O)NCc2ccc3c(c2)OCO3)sc2nc(-c3ccc(F)cc3)cn12 | >57 | 20%
O=C(Cn1nc(-c2ccccc2)ccc1=O)NCCN1CCN(Cc2ccccc2)CC1 | >57 | -10%
CCOC(=O)Cc1csc(NC(=O)c2csc3c2CCCC3)n1 | >57 | -37%
CN(C)Cc1nc2c(c(=O)[nH]1)C1(CCCCC1)Cc1ccccc1-2 | >57 | 15%
CCOc1cccc(C(=O)Nc2ccccc2N2CCN(C(=O)C(C)C)CC2)c1 | >57 | 6%
CCC/C=C(\CCC)C(NS(=O)(=O)CC12CCC(CC1=O)C2(C)C)c1ccc(C(=O)OC)cc1 (centres undefined) | >57 | -11%
NC(=O)COc1ccc2c3c(c(=O)oc2c1)CCCCC3 | . | 4%
CN(C)/C=N/c1cnc(C(=O)c2ccc(Cl)cc2)n1C | >57 | 0%
CC1=NS(=O)(=O)c2cc(Cl)ccc2N1 | >57&>57&>57 | -13%
O=c1cc(NCc2ccco2)c2ccccc2o1 | . | -10%
Cc1cnc(CNc2ncnc3ccc(-c4ccccc4C(F)(F)F)cc23)cn1 | >11 | -5%
C=CCn1c(O)c(C(CC)=NCc2cccnc2)c(=O)[nH]c1=O | >57 | -11%
Cc1noc(C)c1C(=O)N1CCN(C(=O)c2sc3cc(Cl)ccc3c2Cl)CC1 | >57 | ?
O=C(NCc1ccccc1)c1ccc(COCC(F)(F)F)o1 | >57 | 2%
COC(=O)c1ccc(C(NC(=O)OCc2ccccc2)/C(C)=C/[C@@H](C)C(=O)NC2CCCCC2)cc1 (some centres undefined) | . | 2%
O=C(Cn1c(=O)c(C(F)(F)F)nc2ccccc21)N1CCC2(CC1)OCCO2 | >57 | 0%
CCOC(=O)c1ccccc1NC(=O)Cn1cnc2c(oc3ccccc32)c1=O | >57 | 4%
CCOC(=O)N/N=C1/C[C@@H](O)[C@@H](O)[C@@H]2[C@@H]3C(=O)N(CC)C(=O)[C@H]3CC[C@H]12 | . | 5%[8 µM]
CNC(=O)c1nnn(Cc2ccccc2)c1NC(=O)C(F)(F)F | >57 | 15%
Cc1ccc(Cn2nnnc2CN2CCC(O)(c3ccccc3F)CC2)cc1 | >57 | -4%
Cc1c(NC(=O)CCC(=O)N2CCCCC2)c(=O)n(-c2ccccc2)n1C | >57 | ?
Cn1c(SCC(=O)Nc2ccc(N3CCOCC3)c(Cl)c2)nnc1C(O)c1ccccc1 (centres undefined) | >57 | ?
CC(Oc1ccc(Cl)cc1Cl)C(=O)N(Cc1ccco1)C1CCS(=O)(=O)C1 (centres undefined) | >57 | -7%
Cn1c(=O)[nH]c(=O)c2c1nc(N1CCCCC1)n2CCCSc1nc2ccccc2s1 | . | ?
COc1ccccc1C(=O)NC(C)C(c1cccs1)N1CCN(C)CC1 (centres undefined) | >57 | -2%
Fc1ccc(-c2nnc(NC3=NCCCCC3)o2)cc1 | >57 | 6%
O=c1ccc(S(=O)(=O)N2CCC(Cc3ccccc3)CC2)c[nH]1 | >57 | 22%
COc1ccc(Oc2ncc3nc(C)c(=O)n(-c4ccccc4)c3n2)cc1 | >57 | -6%
CN1CCN(C(=O)c2cccc(COc3cc(Cl)ccc3Cl)c2)CC1 | >57 | -13%
COC(=O)c1cccc(NC(=O)CSc2nnnn2C)c1 | >57 | 0%
CN(Cc1cccs1)C(=O)COc1cccc(-n2cnnn2)c1 | >57 | -1%
O=C(c1ccccc1)c1nnc(-c2ccncc2)o1 | >57 | 3%
O=C(NC1CCCCC1)C1CCN(c2nccs2)CC1 | >57 | -5%
COc1ccc(CCNC(=O)CSc2nc(N)c3c(C)c(C)oc3n2)cc1OC | >57 | 6%
CCOC(=O)c1c(NC(=O)c2nn(CC)cc2Br)c(C#N)cn1-c1ccccc1 | >57 | -9%
The list continues.
SMILES | SmPrx2 inh | LT uptake inh
COc1ccc2[nH]c(=O)c(CN(C(=O)c3ccncc3)C(C)(C)C)cc2c1 | >57 | 12%
COc1ccccc1Nc1nc(N)nc(CSc2nncn2C)n1 | >57 | 15%
O=C(c1ccccc1)c1cccc(NC(=O)c2ccco2)c1 | >57 | ?
COc1ccc2nc(C)cc(N3CCOCC3)c2c1 | >57 | -10%
CS(=O)(=O)Nn1cnc2ccccc2c1=O | >57 | 12%
CCOC(=O)c1sc(NC(=O)CCN2CCOCC2)c(C(=O)OCC)c1C | >57 | 2%
COc1ccc2ccc(Oc3ncccn3)cc2c1 | >57 | 4%
O=C(NCc1ccc(F)cc1)c1c(O)c2cccc3c2n(c1=O)CCC3 | >57 | -4%
CC1CCCCN1S(=O)(=O)c1cccc2cccnc12 (centres undefined) | >57 | -3%
O=C(CSc1nc2cc(Cl)ccc2s1)c1ccco1 | >57 | 0%
O=c1[nH]c(=O)n([C@H]2C[C@H](O)[C@@H](CO)O2)cc1Br | . | 2%
O=C(NCc1ccccc1F)C1CCCN(C(=O)NC2CCCCC2)C1 (centres undefined) | >57 | 2%
Cc1cc(NC(=O)CCc2ccc(C)o2)no1 | >57 | 4%
O=C(O)CC[C@@H](NC(=O)c1ccccc1C(=O)O)C(=O)O | >57 | 8%
Cc1ccc(C2Nc3ccccc3C(=O)N2Cc2ccco2)cc1 (centres undefined) | . | ?
C=CCc1cccc2cc(C(=O)N(C)C)c(=O)oc12 | . | -13%
Cc1cc(C)cc(N2CCCn3c2nc2c3c(=O)n(CC(=O)OCc3ccccc3)c(=O)n2C)c1 | >57 | -8%
COc1cc2c(cc1OC)-c1cc(=Nc3c(C)cc(C)cc3C)n(C)c(=O)n1CC2 | >57 | ?
O=C(c1ccco1)N1CCN(S(=O)(=O)c2ccc3c(c2)OCCO3)CC1 | >57 | -5%
C=CCSC1=C(C#N)C(c2cc(Br)c(O)c(OC)c2)CC(=O)N1 (centres undefined) | >57 | -11%

Structural class: the entries above with a CF3 group (5)
SMILES | SmPrx2 inh | LT uptake inh
CC(=O)N1CC=CC1(C)C(=O)NCc1cc(F)cc(C(F)(F)F)c1 (centres undefined) | . | -7%
Cc1cnc(CNc2ncnc3ccc(-c4ccccc4C(F)(F)F)cc23)cn1 | >11 | -5%
O=C(NCc1ccccc1)c1ccc(COCC(F)(F)F)o1 | >57 | 2%
O=C(Cn1c(=O)c(C(F)(F)F)nc2ccccc21)N1CCC2(CC1)OCCO2 | >57 | 0%
CNC(=O)c1nnn(Cc2ccccc2)c1NC(=O)C(F)(F)F | >57 | 15%

Following part
SMILES | SmPrx2 inh | LT uptake inh
O=C(NCCN1Cc2ccccc2C1=O)c1cccs1 | >57 | 1%
Cn1nnc2cc(NC(=O)NCc3ccc4c(c3)OCO4)ccc21 | >57 | -11%
O=C(CCN1C(=O)c2cccnc2C1=O)NC1CCCCCC1 | >57 | 10%
CC(C)C(NS(=O)(=O)c1ccc2c(c1)OCCO2)C(=O)NCCc1ccccn1 (centres undefined) | >57 | 2%
N[C@H](CCC(=O)NCC(=O)O)C(=O)O | >57 | 1%
CCOC(=O)c1cnc(-n2nc(C)cc2C)nc1NC | >57 | 15%
CN1CCN(c2ccnc(-c3cccnc3)n2)CC1 | >57 | 2%
CCOCCCNC(=O)C(NC(=O)CNC(C)=O)c1ccc(Cl)cc1 (centres undefined) | >57 | 2%
CC(C)NC(=O)COC(=O)c1ccc(O)cc1 | >57 | 1%
CCCC(=O)OCCn1c(Br)nc2c1c(=O)[nH]c(=O)n2C | >57 | ?
O=C(CSc1nc2ccccc2[nH]1)Nc1ccccc1N1CCOCC1 | >57 | 8%
CS(=O)(=O)N(Cc1nc2sc3c(c2c(=O)[nH]1)CCCC3)C1CCCCC1 | >57 | 1%
COc1cc(C(=O)COC(=O)Cc2cnc3sccn23)cc(OC)c1OC | >57 | 14%
O=S1(=O)C=C(Oc2ccc(F)cc2)c2ccccc21 | >57 | -5%
O=c1c2ccccc2nc(-c2ccoc2)n1CCc1ccccc1 | >57 | .
C[C@@H](C(=O)N[C@@H](CO)Cc1ccccc1)[C@H]1C[C@]1(C)[C@H](NC(=O)OCc1ccccc1)c1ccccc1 | >57 | 3%
Cc1noc(C)c1COC(=O)c1cc2c(C)nn(-c3ccc(F)cc3)c2s1 | >57 | 8%
CCOC(=O)c1nc(N)sc1C(=O)OCC | >57 | 0%
Cc1ccc(C(=N)c2ccccc2Cc2cccc3ccccc23)c2ccccc12 | >57 | 2.5µM*
C=CCN1CC2CC3(COc4cc(C)cc(C)c4)C=CC2(O3)C1=O (centres undefined) | >57 | ?
CCSc1nnc(NC(=O)c2ccco2)s1 | . | -8%
CSc1nc2c(c(=O)[nH]c(=O)n2C)n1C/C=C(\C)Cl | >57 | -5%
COCCn1c(SCC(=O)N2CCCc3ccccc32)nc2ccccc2c1=O | >57 | -18%
CCCS(=O)(=O)c1cn2cccc(N)c2c1S(=O)(=O)CCC | >57 | -5%
CCC(=O)Nc1ccc(Nc2ccccc2)cc1 | >57 | 11%
Cn1c(=O)c2[nH]c(N3CCOCC3)nc2n(-c2ccccc2)c1=O | >57 | 5%
Nc1ccc(-c2nc3ccc(-c4nc5ccccc5o4)cc3[nH]2)cc1 | >57 | ?
COc1ccccc1OCc1nnc(SCC(=O)c2cc(Cl)ccc2OC)o1 | >57 | 13µM*
Cc1nccn1CCc1nc(N)nc(N)n1 | >57 | -10%
COc1ccc(C(N)=O)cc1N | . | -4%
Nc1c(C(=O)CCC(=O)O)oc2ccc(Cl)cc12 | >57 | 9%
COC(=O)c1cccc(NC(=O)Cn2cnc3c2c(=O)n(C)c(=O)n3C)c1 | >57 | -13%
CC1=C(C(=O)OCc2ccccc2)C(c2ccccc2-c2ccccc2)NC(=O)N1CCCCCC(=O)O (centres undefined) | . | -14%
O=C(/C=C/Nc1ccc(F)c(Cl)c1)c1ccco1 | >57 | 7%
COc1ccccc1-c1cc(C(=O)Nc2c(F)cc(F)cc2Br)no1 | >57 | ?
Cn1c(=O)c2c(nc(SCc3cc4c(cc3Cl)OCO4)n2C)n(C)c1=O | . | ?
COc1ccc2c(c1)C=CC1(O2)N(CCO)c2ccccc2C1(C)C (centres undefined) | >57 | .
N[C@](CC1c2ccccc2Oc2ccccc21)(C(=O)O)[C@@H]1C[C@@H]1C(=O)O | >57 | -15%
Nc1nc(CN2CCCCC2)cs1 | >57 | -9%
